# Screening data from PubChem.
# GIV-Gai inh: inhibitors of GIV peptide binding to Galpha-i3, primary screen, biochemical, fluorescence polarization, FITC-GIV GBA peptide, rat Galphai3. Guanine nucleotide-binding protein G(i) subunit alpha-3 (Rattus norvegicus), P08753. 90 min; hits give low values; scaled: aluminum fluoride 0%, vehicle 100%. percent of control (FP), % (concentration not given with the values). 210,000 tested, 0.42% active. AID 1224905, 2016;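 active = replicate mean at 85% of control or lower, very high polarization wells dropped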;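 note: wells of about 15 µL received 100 nL stock; the first replicate is given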
# Target sequence (P08753 whole entry, looked up): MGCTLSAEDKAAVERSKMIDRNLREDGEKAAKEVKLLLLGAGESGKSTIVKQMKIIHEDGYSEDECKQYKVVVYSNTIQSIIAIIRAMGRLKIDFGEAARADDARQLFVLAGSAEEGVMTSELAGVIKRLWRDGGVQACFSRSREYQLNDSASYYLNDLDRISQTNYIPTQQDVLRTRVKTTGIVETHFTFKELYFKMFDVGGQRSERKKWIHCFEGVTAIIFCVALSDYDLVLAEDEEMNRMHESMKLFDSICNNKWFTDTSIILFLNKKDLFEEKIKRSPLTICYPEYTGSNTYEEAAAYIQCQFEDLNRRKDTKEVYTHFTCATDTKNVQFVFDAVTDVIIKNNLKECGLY
# Starred values were filed as active, the others as inactive. The list is partial, so the mix of outcomes need not match the whole.
SMILES,GIV-Gai inh
COc1cc(OC)c(NS(=O)(=O)c2c(C)sc(C)c2-c2cc(C(F)(F)F)on2)cc1Cl,104
O=C(Cn1ccc2c(SCc3ccccc3)nccc21)N1CCN(c2ccc(F)cc2)CC1,105
COc1ccc(OC)c(Nc2ncnc3c2cnn3-c2ccc(Cl)cc2)c1,101
O=C(NCCCN1CCOCC1)c1ccc2c(=O)n(Cc3cccc(Br)c3)c(=S)[nH]c2c1,113
COc1ccc(N2CC(c3nnc(NC(=O)COc4ccccc4C)o3)CC2=O)cc1 (centres undefined),99
O=C(CC1CCN(C(=O)c2cc3cc(Cl)ccc3[nH]2)CC1)N1CCN(c2ccccn2)CC1,102
O=C(NCC1CCCCC1)C1CCN(c2cncnc2N2CCOCC2)CC1,107
COc1ccc(OC)c(NS(=O)(=O)c2c(C)sc(C)c2-c2cc(C(F)(F)F)on2)c1,103
O=S(=O)(NCCOc1ccc(-c2ccccc2)nn1)c1cccc(Cl)c1,97
Cc1ccc(-c2nnc(N3CCCCC3)c3ccccc23)cc1S(=O)(=O)N(C)C,101
O=C1CCCc2oc3ccc(NS(=O)(=O)c4ccc5ccccc5c4)cc3c21,102
O=c1n(Cc2ccc(Cl)cc2)nc2c(S(=O)(=O)N3CCc4ccccc4C3)cccn12,125
CCOC(=O)C1=CN(Cc2ccc(F)cc2)C=C(C(=O)OCC)C1c1cc(OC)c(O)c([N+](=O)[O-])c1,104
Cc1ccccc1CN1C2=NCCN2c2ccccc21,108
CC1(C)Cc2c(ccc3ccccc23)C2=CC(=O)C(=O)N21,116
COc1ccc(C(=O)Nc2cnc(N3CCN(c4ccccc4Cl)CC3)c(C(=O)O)c2)cc1,104
CCOC(=O)c1sc2nc(SCC(=O)C(C)(C)C)n(Cc3ccco3)c(=O)c2c1C,118
O=C1C=C(/C=C/c2ccccc2)C[C@H](c2ccccc2)[C@H]1n1cnc([N+](=O)[O-])c1,111
CCOc1cc(C2CC(=O)Nc3c2c(C)nn3-c2ccc3nnc(C)n3n2)ccc1O (centres undefined),103
Cc1ccc(C2CC(c3cccs3)=NN2C(=O)CSc2c[nH]c3ccccc23)cc1 (centres undefined),109
CCS(=O)(=O)c1nc2ccc(NS(=O)(=O)c3cc(C)c(C)cc3C)cc2s1,106
COc1ccc(C2N(c3ccc(Cl)cc3)CCN2c2ccc(Cl)cc2)cc1Br,111
CNC(=O)C1CCCN(c2nc3ncn(CC(=O)NCC4CCCO4)c(=O)c3s2)C1 (centres undefined),100
CCOc1ccc(-n2c(=S)sc3c(=O)[nH]c(SCC(=O)NC(C)CC)nc32)cc1 (centres undefined),110
CCc1cc2c(N3CCCC(C(=O)Nc4nccs4)C3)ncnc2s1 (centres undefined),104
Cc1nn(-c2ccc(F)cc2)c2c1c(=O)c(C(=O)NCCC(C)C)cn2C,106
COc1ccc(CCN(C(=O)c2ccc(F)cc2)C2=CC3CCC(C2)N3C)cc1OC (centres undefined),113
O=C(Cn1cnc2sc3c(c2c1=O)CCCC3)Nc1ccc(Oc2ccc(Cl)cc2)cc1,107
CCOC(=O)N1CCN(c2ncnc3c2c(-c2ccccc2)cn3-c2ccc(C)cc2)CC1,103
Cn1c(N2CCN(C(=O)CCC3CCCC3)CC2)cc(=O)n(C)c1=O,107
CCc1ccc(NC(=O)CSc2nc3ccccc3c(=O)n2CC2CCC(C(=O)NCC3CCCO3)CC2)cc1 (centres undefined),110
CC1CCN(S(=O)(=O)c2ccc(-c3nnc(C(=O)NCCCN4CCN(C)CC4)o3)cc2)CC1,102
CCCC(=O)N1c2ccccc2C(=C2SC(C(=O)OCC)=C(C(=O)OCC)S2)C(=S)C1(C)C,120
Cc1nn(-c2nc3ccccc3o2)c2c1C(c1cccc(F)c1F)CC(=O)N2 (centres undefined),101
COCCCNC(=O)CSc1nc(NC2CCCCC2)c2ccccc2n1,111
CC(C)N1CCc2c(sc(NC(=O)C(C)(C)C)c2-c2nc3ccccc3s2)C1,-26*
CC(C)c1c(C#N)c(N)nc2sc(C(=O)c3ccc(Br)cc3)c(N)c12,98
O=C(NC1CC1)c1cc2cc3ccc(Cl)cc3nc2o1,112
O=C(c1sc(=S)n2c1[nH]c(=O)c1ccccc12)N1CCCC1,107
Oc1ccc(Br)cc1-c1nnc2ccc3ccccc3n12,112

# 6 successive compounds from above, quoted:
SMILES,GIV-Gai inh
COCCCNC(=O)CSc1nc(NC2CCCCC2)c2ccccc2n1,111
CC(C)N1CCc2c(sc(NC(=O)C(C)(C)C)c2-c2nc3ccccc3s2)C1,-26*
CC(C)c1c(C#N)c(N)nc2sc(C(=O)c3ccc(Br)cc3)c(N)c12,98
O=C(NC1CC1)c1cc2cc3ccc(Cl)cc3nc2o1,112
O=C(c1sc(=S)n2c1[nH]c(=O)c1ccccc12)N1CCCC1,107
Oc1ccc(Br)cc1-c1nnc2ccc3ccccc3n12,112

# Additional records.
SMILES,GIV-Gai inh
CCCN(Cc1ccc(F)cc1)Cc1cc(=O)n2nc(C3CC3)sc2n1,109
COc1ccc2c(c1)C(=NNC(=O)Nc1ccccc1)c1cc(OC)ccc1-2,98
Cc1cc2c(cc1C)C(c1ccc(Cl)c(Cl)c1)CC(=O)N2 (centres undefined),103
CCOC(=O)c1sc2ncnc(Nc3ccc(F)cc3)c2c1C,102
O=C(Nc1cccc(Cl)c1)N1CCN(Cc2nc3cccnc3n2-c2ccccc2)CC1,103
Oc1ccccc1-c1nc2ccccc2[nH]1,111
C=CCN(CC=C)CC(O)Cn1c(-c2ccccc2)c(-c2ccccc2)c2ccc3ccccc3c21 (centres undefined),109
CCOc1ccc(NC(=O)c2ccc(N3CC4CC(C3)c3cccc(=O)n3C4)c(NC(=O)/C=C/c3ccccc3)c2)cc1 (centres undefined),108
CCC(Sc1nc2ccccc2c(=O)n1NC(=O)COc1ccc(Cl)cc1Cl)C(=O)N1CCOCC1 (centres undefined),112
CC(=O)C1(C)CC2(CC(COCC(C)C)OC2=O)C(=O)O1 (centres undefined),112
COc1ccccc1C1Nc2ccccc2C(c2ccccc2)(c2ccccc2)O1 (centres undefined),107
COc1ccc(-c2nc(-c3ccccc3)c(-c3ccc(Sc4ccccc4)cc3)[nH]2)cc1,112
O=S(=O)(NC1CCCCCC1)c1ccc(-c2cnc(C3CCC3)o2)s1,107
O=c1ccc(-c2ccc(F)cc2)nn1CCc1nc(-c2ccc(F)cc2)no1,108
O=S(=O)(c1cc(-c2nnc(C3CC3)o2)co1)N1CCN(c2ccccn2)CC1,96
COc1ccc(C2NC(=O)NC(C)=C2C(=O)Nc2ccc(F)c(F)c2)cc1OC (centres undefined),101
O=S(=O)(c1ccc2c(c1)OCCO2)N1CCN(c2ncnc3c2nnn3-c2cccc(F)c2)CC1,102
CCOCCCNS(=O)(=O)c1cc(-c2ccno2)cs1,181
COC(=O)c1c(-c2ccc(Cl)cc2)noc1NCCN(C)C1CCCCC1,106
COc1cc(C(=O)Nc2cc(C(=O)NCc3ccco3)ccc2N2CC3CC(C2)c2cccc(=O)n2C3)cc(OC)c1OC (centres undefined),108
CC1CCN(c2cc(N(C)CCO)c([N+](=O)[O-])c3nonc23)CC1,107
COc1ccc(-c2cc(C(F)(F)F)n3ncc(C(=O)N4CCc5ccccc5C4)c3n2)cc1OC,109
Cc1nc2cc(-c3noc(/C=C/c4ccco4)n3)ccc2o1,103
Cc1nn(-c2ccc3nnc(C)n3n2)c2c1C(c1cc(F)ccc1F)CC(=O)N2 (centres undefined),101
CC(C)CNC(=O)C1CCc2nc(N3CCCCC3)ncc2C1 (centres undefined),100
N#CC(=C1CCCC1)c1nc(-c2ccc(O)cc2)cs1,102
Cc1nn(-c2ccccc2)c(N2CCC(C(=O)N3CCCCC3)CC2)c1-n1c(C)ccc1C,104
O=C(NCC1(c2ccccc2)CCOCC1)C(c1ccccc1)c1ccccc1,113
COCCNS(=O)(=O)c1ccc2c(c1)N(Cc1noc(C3CCC3)n1)C(=O)CO2,99
CC1=CCC2(C(=O)OC(C)(C)OC2=O)C(c2ccc(Cl)cc2)C1 (centres undefined),104
CC1=C(C(=O)OC(C)C)C(c2ccccc2Cl)CC(=O)N1 (centres undefined),117
COc1ccc(C2/C(=C(\O)c3ccccc3)C(=O)C(=O)N2c2nc3ccccc3s2)c(OC)c1 (centres undefined),101
CCC(=O)C1=C(c2ccc(Br)cc2)N(C(=O)CC)n2c(CC)nnc2S1,102
COC(=O)C1=C(C(=O)OC)SC(=C2C(=S)C(C)(C)N(C(C)=O)c3ccc(C)cc32)S1,114
O=C(NCC1CCCO1)C(=O)Nc1ccc(Cl)cc1 (centres undefined),115
N#CC1=C(N)C2=CCCC[C@H]2[C@H](c2cccnc2)C1(C#N)C#N,110
COc1cccc(C2c3c(-c4ccccc4)n[nH]c3C(=O)N2c2ccc(Cl)cc2)c1 (centres undefined),100
CCc1onc(C)c1C1CCCN1Cc1cccc(F)c1F (centres undefined),104
CC(C)CC(=O)N1CCc2c(c(C(=O)N3CCCC(C(=O)Nc4ccccc4)C3)nn2C)C1 (centres undefined),105
O=C(Cn1nc(C(=O)Nc2ccccc2)ccc1=O)Nc1cccc(F)c1,105

# The closing 3 compounds of the section above come first, to join the parts.
SMILES,GIV-Gai inh
CCc1onc(C)c1C1CCCN1Cc1cccc(F)c1F (centres undefined),104
CC(C)CC(=O)N1CCc2c(c(C(=O)N3CCCC(C(=O)Nc4ccccc4)C3)nn2C)C1 (centres undefined),105
O=C(Cn1nc(C(=O)Nc2ccccc2)ccc1=O)Nc1cccc(F)c1,105
COc1cccc(-c2nc3c4ccccc4n(CC(=O)c4ccc(OC)c(OC)c4)c(=O)n3n2)c1,98
COCc1oc2c(cc(NS(=O)(=O)c3c(C)cc(C)cc3C)c3ccccc32)c1C(=O)OC,108
COc1cccc(Nc2ccc3noc4c3c2C(=O)c2ccccc2-4)c1,102
CCCCNC(=O)CSc1nc2sc(C(=O)OCC)c(C)c2c(=O)n1Cc1ccc2c(c1)OCO2,106
C=Cc1ccc(CSc2nnc3c(S(=O)(=O)N4CCCC4)cccn23)cc1,106
Cc1nc(-c2csc(S(=O)(=O)N3CCCC(C(=O)NC4CCC(C)CC4)C3)c2)no1 (centres undefined),106
CN(C(=O)c1ccc(N2CC3CC(C2)c2cccc(=O)n2C3)c(NC(=O)c2cc3ccccc3oc2=O)c1)C1CCCCC1 (centres undefined),105
C/C(O)=C1/C(=O)NC2(C)CC1c1cc(Br)ccc1O2 (centres undefined),114
Cc1cc(C)cc(N2C(=O)CN=C2Nc2nc(C)cc(C)n2)c1,105
CSc1ccc(Nc2ncccc2S(=O)(=O)Nc2ccc(F)cc2)cc1,104

# An excerpt of these results, bar-delimited.
Compound | GIV-Gai inh
COc1cccc(Nc2ccc3noc4c3c2C(=O)c2ccccc2-4)c1 | 102
COc1cccc(-c2nc3c4ccccc4n(CC(=O)c4ccc(OC)c(OC)c4)c(=O)n3n2)c1 | 98
Cc1cc(C)cc(N2C(=O)CN=C2Nc2nc(C)cc(C)n2)c1 | 105
CN(C(=O)c1ccc(N2CC3CC(C2)c2cccc(=O)n2C3)c(NC(=O)c2cc3ccccc3oc2=O)c1)C1CCCCC1 (centres undefined) | 105
CCCCNC(=O)CSc1nc2sc(C(=O)OCC)c(C)c2c(=O)n1Cc1ccc2c(c1)OCO2 | 106

# Next part:
SMILES,GIV-Gai inh
O=C(NCc1c(-c2ccc(F)cc2)nc2n1CCS2)c1ccc(Cl)cc1,93
CC1(C)CC(=O)C=C(NCCc2ccc(S(N)(=O)=O)cc2)C1,110
Cc1noc(/C=C/c2ccc(S(=O)(=O)NCC3CCCO3)s2)c1NC(=O)C1CC1 (centres undefined),100
Cc1c(C(=O)Nc2ccc(Oc3ccccc3)cc2)sc2ncn(CC(=O)N3CCCCC3C)c(=O)c12 (centres undefined),111
CCOc1cccc2c1OC1(C)CC2/C(=C(\C)O)C(=O)N1 (centres undefined),125
COc1ccc(CCNC(=O)c2sc3nc(C)nc(N4CCC(C)CC4)c3c2C)cc1OC,101
COc1cc(/C=N/NC(=O)c2nnn(-c3nonc3N)c2CN2CCCCCC2)cc(OC)c1OC,115
CCOc1ccc(-c2[nH]ncc2CN2CCCC2c2cc(C)on2)cc1 (centres undefined),107
Cc1ncc(-c2ccc(S(=O)(=O)N3CCC(Cc4ccccc4)CC3)s2)o1,106
COc1ccccc1N=C(NOCc1ccccc1)c1nonc1N,105
Cc1cc(NC(=O)CCc2nc(CSc3nc4ccccc4s3)no2)no1,110
CCc1ccc(C2=Nc3ccccc3NC(c3ccc(Cl)cc3)C2)cc1 (centres undefined),112
COc1ccccc1Nc1nc(-c2nnn(-c3ccccc3)c2C)ns1,100
CCC12c3ccccc3C(c3ccccc31)C1C(=O)N(c3cc(Cl)ccc3C)C(=O)C12 (centres undefined),107
CC1CCN(c2ncc(S(=O)(=O)c3ccc(C(C)C)cc3)c(N)n2)CC1,107
CN(C)c1ccc(CNC(=O)C2CCCN(c3ccncc3)C2)cc1 (centres undefined),106
CC(C)c1cc(C2CCCN2C(=O)c2c(Br)cnn2C)on1 (centres undefined),102
COc1ccc(CCC(=O)N2CCc3c(c(C(=O)N4CCCC(C(=O)NC5CC5)C4)nn3C)C2)cc1 (centres undefined),103
Cc1ccc(NC(=O)Nc2nnc(SCC(=O)Nc3ccccc3)s2)cc1,96
Cc1ccc(-c2csc3c2ncn2c(=O)n(CC(=O)NCCc4ccc(Cl)cc4)nc32)cc1,101
O=C(C1CC(=O)N(c2cccc(F)c2)C1)N1CCN(c2ncnc3c2nnn3-c2ccccc2)CC1 (centres undefined),100
CC(C)Cc1cnc2c(c1SCC(=O)N1CCC(C)CC1)c(=O)n(C)c(=O)n2C,104
O=c1/c(=C\c2ccc(-c3ccc(Cl)cc3[N+](=O)[O-])o2)sc2nc3ccccc3n12,111
CCOc1ccc(C2=NN3C(C2)c2cc(Cl)ccc2OC3c2cccc(OC)c2OC)cc1 (centres undefined),104
